# Vaccinia pol inh = vaccinia E9 polymerase processive synthesis inhibitors, primary screen, biochemical, absorbance. actives 0.94% (n = 46,000). normalized absorbance, % (test concentration not listed). Vaccinia virus DNA polymerase (E9) processive complex. in vitro processive DNA synthesis, absorbance read-out; active compounds read low; some inactives read as strong as hits;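 active = replicate mean up to 90% and picked by the depositor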;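 also: 100% = median of the test wells of a plate; 100 nL library stock went into each well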
# Starred values were filed as active, the others as inactive. This is a subset, so the mix of outcomes need not match the whole.
SMILES,Vaccinia pol inh
COC(CNC(=O)C1CCN(S(=O)(=O)c2cccc3nsnc23)CC1)OC,94.8
O=C(CCc1ccccc1)NCc1ccccn1,99.8
CCOC(=O)c1[nH]c(C)cc1C,112.5
O=C(CSC1=NC(=O)C(c2ccccc2)C(=O)N1)NC1CCCCC1 (stereo unspecified),99.7
COc1ccccc1N1CCN(Cc2c(O)ccc3ccccc23)CC1,102.4
CC(=O)Nc1sc2c(c1CN1CCc3ccccc3C1)CCCC2,105.8
Cc1sc2ncnc(Nc3ccc(F)cc3)c2c1C,98.6
c1ccc(Oc2cnc3ccccc3n2)cc1,116.9
O=C(Cn1c(=O)n(CC(=O)NC2CCCC2)c(=O)c2ccccc21)Nc1ccc(Br)cc1,95.4
Nc1nnc(SCC(=O)N2CCCCC2)s1,99.5
O=S(=O)(CC(CN1CCCCC1)N1CCCCC1)c1ccccc1 (stereo unspecified),97.0
Cc1ccc(Cn2nnc3c(=O)n(Cc4cccc(C)c4)cnc32)cc1,96.5

# Entries listed so far that have two or more sulfur atoms (2):
SMILES,Vaccinia pol inh
COC(CNC(=O)C1CCN(S(=O)(=O)c2cccc3nsnc23)CC1)OC,94.8
Nc1nnc(SCC(=O)N2CCCCC2)s1,99.5

# The results go on:
SMILES,Vaccinia pol inh
CCCCC/C=C\C=C\[C@H](CCCCCCCC(=O)O)OO,100.1
Clc1ccccc1Cn1c(CSC2=NCCN2)nc2ccccc21,101.3
O=C(COc1ccc(Cl)cc1Cl)OCC1CCCN2CCCCC12 (stereo unspecified),99.7
O=C1CCC/C1=c1/s/c(=C/c2cccnc2)c(=O)n1-c1ccccc1,83.1
O=C(Cc1ccccc1)NCc1nc2ccccc2[nH]1,94.6
CC(C)(C)S(=O)(=O)c1ccc(C(=O)O)s1,100.7
Cn1nc(-c2ccc(C(=O)Nc3ccc(Cl)cc3)s2)cc1C(F)(F)F,103.0
CSc1nnc(NC(=O)c2ccc(F)cc2)s1,97.1
CCOc1ccc(CNc2ccc(CNc3ncn[nH]3)cc2)cc1,108.8
O=c1ccn(-c2ccc(F)cc2)nc1-c1ccn[nH]1,100.1
Cc1cccc(NC(=O)/C=C/c2ccccc2)c1,99.7
Cc1cc(O)cc2occ(-c3cnn(-c4ccccc4)c3)c(=O)c12,98.5

# Reprinted from the part before: 8 entries, followed by the next part.
SMILES,Vaccinia pol inh
O=C(Cc1ccccc1)NCc1nc2ccccc2[nH]1,94.6
CC(C)(C)S(=O)(=O)c1ccc(C(=O)O)s1,100.7
Cn1nc(-c2ccc(C(=O)Nc3ccc(Cl)cc3)s2)cc1C(F)(F)F,103.0
CSc1nnc(NC(=O)c2ccc(F)cc2)s1,97.1
CCOc1ccc(CNc2ccc(CNc3ncn[nH]3)cc2)cc1,108.8
O=c1ccn(-c2ccc(F)cc2)nc1-c1ccn[nH]1,100.1
Cc1cccc(NC(=O)/C=C/c2ccccc2)c1,99.7
Cc1cc(O)cc2occ(-c3cnn(-c4ccccc4)c3)c(=O)c12,98.5
C=CCn1c(CNC(=O)c2cccc(C)c2)nc2ccccc21,98.9
CCOc1ccc(S(=O)(=O)N2CCc3ccccc3C2)cc1,110.5
CCN(CC)c1ccc2cc(-c3ncc(-c4ccc(F)cc4)o3)c(=O)oc2c1,99.9
COc1ccc(/C=C(\NC(=O)c2ccccc2)C(=O)Nc2ccc(F)cc2)cc1OC,102.0
Cc1cc(C)c2c(=O)[nH]c(SCc3ccccc3C)nc2n1,96.2
c1ccc2c(c1)CCN2c1nc2ccccc2n2cnnc12,101.2
CN1CCC(OC(=O)c2ccc3c(c2)OCCO3)CC1,101.1
CC(=O)Oc1ccc2c(=O)c(-c3nc4ccccc4n3C)coc2c1,93.8
O=C(NCc1ccc(-c2cccs2)s1)c1c(Cl)cccc1Cl,96.8
O=C(OCC(=O)N1CCCC1)c1ccc(OC(F)(F)F)cc1,87.6
CCc1ccc(CC(=S)N2CCOCC2)cc1,100.2
Clc1ccc(Cn2ncc3c(NCc4cccnc4)ncnc32)cc1,96.6

# Quoted at random: two compounds from above
SMILES,Vaccinia pol inh
CCOc1ccc(S(=O)(=O)N2CCc3ccccc3C2)cc1,110.5
c1ccc(Oc2cnc3ccccc3n2)cc1,116.9

# Other entries
SMILES,Vaccinia pol inh
NC(=O)C1CCN(C(=O)c2ccc(C(F)(F)F)cc2)CC1,102.8
CCOc1ccc(NC(=O)N2CC(C)OC(C)C2)cc1 (stereo unspecified),100.6
Cc1nc2ccc(F)cc2c2c1CCN2c1ccc(Cl)cc1,98.5
O=C(COC(=O)C1CCCCC1)Nc1cc(Cl)cc(Cl)c1,108.4
CCN(CC)C(=O)Cn1cc(SCc2ccccc2)c2ccccc21,101.0
CC(C)C1CCC(C)C(C(O)c2ccc(-c3ccccc3)cc2)C1=O (stereo unspecified),99.4
CC(=Nc1ccc(C(=O)O)cc1)c1cc2c(=O)n(C)c3ccccc3c2oc1=O,97.1
CCOC(=O)c1c(NC(=O)CCN2CCOCC2)sc2c1CCC(C)C2 (stereo unspecified),100.3
O=C(CC(C(=O)N1CCc2ccccc21)n1ccnc1)NCc1ccccc1 (stereo unspecified),91.1
CC1(C)C2CC[C@](C)(C2)C1NC(=O)C1CCCCC1 (stereo partly specified),109.5
Cn1c(O)c(C=Nc2cccc3ccccc23)c2ccccc21,99.8
O=C(O)c1ccc(NS(=O)(=O)c2ccc3c4c(cccc24)C(=O)N3)cc1,100.2
CCOc1cc(C(=S)N2CCCC2)ccc1OCc1ccccc1F,100.3
Cc1ccc(-n2ncc3c(=O)[nH]c(SCc4ccccc4F)nc32)cc1,99.6
O=S(=O)(Cc1ccccc1)c1cnc2ccccc2n1,109.3
Cc1ccc(-c2nnc(N3CCCCC3)c3ccccc23)cc1C,99.8
O=C(c1ccc(N2C(=O)CCC2=O)cc1)N1CCc2ccccc2C1,101.9
COc1ccc(Cc2nnc(C(=O)N3CCN(c4ccccc4OC)CC3)o2)cc1OC,88.9
CCCc1ncc(C[n+]2ccccc2C)c(N)n1,104.1
CCOC(=O)NC(=S)Nc1cccc(C)n1,107.4
O=c1oc2ccccc2cc1S(=O)(=O)c1ccc(F)cc1,104.2
COc1ccc(C2C(C#N)=C(N)N3CCc4cc(OC)c(OC)cc4C3=C2C#N)cc1 (stereo unspecified),109.3
COC(=O)c1cc2sccc2n1C(C)C(=O)Nc1cc(Cl)ccc1C (stereo unspecified),95.9
COc1ccc(C(=O)Nc2ccc(S(=O)(=O)N3CCCCC3C)cc2)c(OC)c1OC (stereo unspecified),99.9
Cc1ccc(C(=O)OCC(=O)N2CCCC2)s1,108.3
NC(=O)COC(=O)c1cc(-c2ccccc2)nc2ccccc12,101.8
Cc1cc(C(=O)N2CCCC2C(=O)O)c(C)o1 (stereo unspecified),99.4
O=c1c2ccccc2n(Cc2ccc(Cl)cc2)c(=O)n1Cc1ccc(Cl)cc1,106.5
COc1ccc2nc3c(nc2c1)-c1cccc2cccc-3c12,100.4
Cc1ccc2c(c1)N(CCC(=O)NC1CCC(C)CC1)C(=O)CO2 (stereo unspecified),99.8
O=S(=O)(c1ccccc1)N1CCN(c2ccccc2)CC1,100.2
Cc1ccc(NCCC(=O)O)cc1,100.1
O=c1cc(CN2CCCC2)nc(-c2cc(C(F)(F)F)cc(C(F)(F)F)c2)[nH]1,102.9
O=c1[nH]c2ccc(Cl)cc2c(-c2ccccc2)c1NS(=O)(=O)c1ccccc1,98.6
N#CC1=C(N)Nc2c(c(=O)oc3ccccc23)C1c1ccc(Br)cc1 (stereo unspecified),100.2
Cn1cccc/c1=N/c1cccc[n+]1C,100.0
CC1=CCC2(C(=O)OC(C)(C)OC2=O)C(c2ccc(Br)cc2)C1 (stereo unspecified),99.3
CC1CCCCC1NC(=O)c1cc(-c2cccs2)nc2ccccc12 (stereo unspecified),104.6
CCCc1cc(=O)oc2cc(OC(C)=O)ccc12,94.1
COc1ccc(CNC(=O)c2cccc3c2C(=O)N(c2ccc(OC)cc2)C3)cc1,97.6
CSC1=NN1c1cc(C)nc(N)n1,114.7
CN(C(=O)COC(=O)c1ccc(I)cc1)c1ccccc1,99.7
CCOC(=O)C1CCN(/C=C(\C#N)S(=O)(=O)C(C)(C)C)CC1,90.3
COc1ccccc1NC(=O)c1cnc(Nc2ccc(C)c(Cl)c2)c2ccccc12,96.5
N#Cc1ccc(C(=O)OC2CCCC2)cc1,99.1
Cc1cc2cc(CNC(=O)c3ccc4ccccc4c3)ccc2[nH]1,103.5
CN(C)CCNc1cc(-c2cccnc2)nc2ccccc12,48.0*
Cc1ccc(C2SCCN2S(C)(=O)=O)cc1 (stereo unspecified),99.7
Cn1c(/C=C/C=C/N2CCCC2)nc2ccccc2c1=O,81.1
Cc1cc(C)c(C)c(S(=O)(=O)N2CCNCC2)c1C,87.7
N#CCC(=O)Nc1ccc(C(F)(F)F)cc1N1CCOCC1,104.9
O=c1[nH]c2cc(C(F)(F)F)ccc2n(Cc2ccccc2)c1=O,99.5
O=C(CC1CCCC1)NC12CC3CC(CC(C3)C1)C2,100.9
CC1CCN(S(=O)(=O)c2cc(Br)ccc2Br)CC1,100.3
COc1ccc(C2=N/C(=C/c3cccnc3)C(=O)O2)cc1OC,89.4
O=C(NCc1cccs1)c1cc(-c2ccccc2)oc1C(F)(F)F,101.9
Cn1c(=O)c2c(ncn2CCCCn2cnc3c2c(=O)n(C)c(=O)n3C)n(C)c1=O,104.3
O=C(O)c1c[nH]c2ccc(F)cc2c1=O,99.4
Fc1cccc(F)c1C=Nc1ccc(-c2nc3ccccc3[nH]2)cc1,89.1
CCCn1c(C(=O)c2ccc(OC)cc2)nc2ccccc21,95.2

# (cont.)
SMILES,Vaccinia pol inh
COc1nsc(NN)c1C#N,99.5
CS(=O)(=O)N1CCC(c2noc(-c3ccc(C(F)(F)F)cc3)n2)CC1,105.9
CC(C)C(=O)c1c(O)c2ccccc2oc1=O,97.6
CCCCN(C)C(=O)c1cn(CC)c2nc(C)ccc2c1=O,100.5
CCCS(=O)(=O)NCc1ccc2c(c1)cc(C)n2C,98.2
CC1Cn2cc(C(=O)Nc3cccc(F)c3)c(=O)c3c(Cl)ccc(c32)O1 (stereo unspecified),108.4
N#CCSc1ccc2nnc(CCNS(=O)(=O)c3ccccc3)n2n1,97.7
CCOC(=O)Cn1c(=N)n(Cc2ccc(Cl)c(Cl)c2)c2ccccc21,100.1
O=C(CSc1nnc(OC(=O)c2cccs2)n1C1CC1)c1ccc2c(c1)OCCO2,94.8
O=S(=O)(/N=C(/NC(=S)OC1CCCCC1)c1ccccc1)c1ccccc1,99.7
Cc1[nH]c2ccccc2c1C=Nc1ccc(N=Cc2c(C)[nH]c3ccccc23)cc1,98.2
Cc1ccc(CSc2nc3ccc(C(=O)N4CCN(c5ccccc5)CC4)cc3n2C)cc1,102.5
O=C(NCC1CC1)c1ccccc1NS(=O)(=O)c1ccc(F)cc1F,83.2
CCC1(C)CC(CCN2C(=O)c3ccccc3C2=O)(c2ccc(C)cc2)CCO1 (stereo unspecified),99.1
CCN1CCN(C(=O)C(c2ccccc2)c2ccccc2)CC1,104.2
CCN(CC)C(=O)CCCN1C(=O)/C(=C/c2ccc(OC)cc2)SC1=S,100.0
O=C(NCCc1ccccc1)c1nnc(-c2ccccc2)o1,92.8
C=CCC1C(C)=NN(C(=O)c2ccc(Cl)cc2)C1(C)O (stereo unspecified),100.5
CCCSc1nnc(-c2c[nH]c3ccccc23)n1CC,86.4
CCn1c(O)c(C2=NC(=S)NC2=O)c2ccccc21,99.9
CC1CN(C(=O)CCC(=O)NC2CCCC(C)C2C)c2cc(Cl)ccc2O1 (stereo unspecified),85.2
CCOC(=O)c1c(NC(=O)CSc2cc(C)c3ccccc3n2)sc2c1CCC2,99.9
CCc1ccc(NC(=O)Nc2cccs2)cc1,101.3
Cc1nn(C(=O)C2CCCN2S(=O)(=O)c2ccccc2)c(C)c1Sc1ccccc1 (stereo unspecified),99.2
Cn1c(SCc2ccc(F)c3ccccc23)nc2ccccc2c1=O,100.7
O=C1CCCN1c1ccc(C(=O)n2ccnc2)cc1,96.9
N#Cc1c[nH]n2c(NC3CCCC3)c(-c3cccs3)nc12,98.1
CCOC(=O)/C=C/c1ccco1,97.6
N#CC(C#N)=C(/C=C/c1ccccc1)C1CC1,88.6
Cc1cc(N2CCOCC2)nc2ccc(NC(=S)NCCC(C)C)cc12,82.1
CCOC(=O)CNc1cccc(C(F)(F)F)c1,95.7
CC(=O)Nc1nc(CC(=O)c2ccccc2)cs1,99.4
NS(=O)(=O)c1cc2c(cc1Cl)NC(C1CC3C=CC1C3)NS2(=O)=O (stereo unspecified),100.5
CCOc1ccc(NC(=O)CC#N)cc1,101.6
COc1ccccc1NC(=O)CC(NCc1ccccc1)C(=O)O (stereo unspecified),102.7
O=C(O)C1Cc2c([nH]c3ccccc23)C(c2ccccc2)N1 (stereo unspecified),94.3
O=C(NCCc1ccccc1)C1CCCCC1C(=O)OCC(F)(F)F (stereo unspecified),100.3
O=C1COc2cc(S(=O)(=O)CCC(=O)N3CCCCCC3)ccc2N1,108.7
CC(=O)N(Cc1ccccc1)C1CCCc2c1[nH]c1ccc(C)cc21 (stereo unspecified),99.5
COc1ccc(OCCSc2nc3ccccc3s2)cc1,100.3
NC(=O)CSc1nc2ccccc2c(=O)n1-c1ccccc1,106.4
Cc1cc(O)c(CN2CCN(C)CC2)c2oc(=O)c3ccccc3c12,81.4*
CCOC(=O)Cc1csc(NS(=O)(=O)c2cn(C)cn2)n1,89.4
COc1cc(NC(=O)N2CCOc3ccccc32)cc(OC)c1OC,97.6
C[C@H](c1ccccc1)N1C(=O)CC[C@H]2CC(=O)CC[C@@H]21,101.6
COc1ccc(-c2cc(C(=O)NC3CCCCC3C)c3ccccc3n2)cc1 (stereo unspecified),101.1
CCCc1nc(NCc2ccccc2)c(C#N)c2c1CCCC2,100.7
CCOC(=O)c1ccc(NC(=O)/C=C/c2cccc(C(F)(F)F)c2)cc1,90.6
COc1ccc(Nc2oc(-c3ccc(OC)cc3)nc2C#N)cc1,100.5
CC(C)NC(=O)COc1ccc(Br)cc1,89.9
CCOC(=O)C1CCN(/C=C(\C#N)S(=O)(=O)c2ccccc2)CC1,91.1
COc1cc(C(=O)NCc2cccnc2)ccc1OCc1ccc(Cl)cc1,100.8
Cc1ccc(S(=O)(=O)c2cnc3ccccc3n2)cc1,104.5
